High-throughput results deposited in PubChem BioAssay by National Center for Advancing Translational Sciences (NCATS).
Cruzain Triton: inhibitors of Trypanosoma cruzi cruzain with detergent | P25779 | purified cruzain, Z-FR-AMC fluorescence, 0.01% Triton | Potency, µM, inactives show max response, negative = inhibition, hits mostly inhibitors | actives 0.43% (n = 200,000) | AID 1478;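 note: plate controls were neutral wells for no effect and buffer without enzyme for full effect; nearly all actives have a fitted effect of over 40% in size; top concentration of the series not given in the record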
Target sequence (P25779 123-467 limits assumed): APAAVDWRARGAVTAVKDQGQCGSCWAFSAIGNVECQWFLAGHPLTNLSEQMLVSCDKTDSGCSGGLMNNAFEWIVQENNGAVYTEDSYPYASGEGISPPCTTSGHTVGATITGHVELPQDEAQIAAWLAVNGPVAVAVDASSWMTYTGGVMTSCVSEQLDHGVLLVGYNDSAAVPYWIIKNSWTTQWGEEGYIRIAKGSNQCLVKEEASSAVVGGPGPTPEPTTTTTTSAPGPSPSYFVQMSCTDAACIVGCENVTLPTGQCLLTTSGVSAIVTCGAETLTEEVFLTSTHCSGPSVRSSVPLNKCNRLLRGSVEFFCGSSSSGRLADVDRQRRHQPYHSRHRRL
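Steps: dispense cruzain (1.5 nM final) in acetate buffer pH 5.5 with DTT and 0.01% Triton X-100; pin-transfer compounds; incubate 15 min RT; add Z-FR-AMC (2 uM final); read fluorescence every 30 s, using the 60 s intensity change.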
RE007 growth inh: less growth of the S. pombe RE007 Vpr strain | S. pombe RE007 Vpr strain, BacTiter-Glo ATP luminescence, 24 h; control for the full effect not named in the record | Potency, µM (top dose mostly 92.2 µM), without a hit: at the top dose activity change, negative = less growth | actives 0.21% (n = 360,000) | AID 651644; active = well fitted falling curve with a large enough effect; inconclusive = small, poorly fitted or top-dose-only effect; inactive = no such curve, though single readings can be large or run the other way;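 note: % is set by controls: 0 for no effect and ±100 for the full control effect; nearly all actives have a fitted effect of over 50% in size; the assay follows cell death caused by Vpr and the record does not say whether a fall means rescue or toxicity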
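Fission yeast RE007 carrying one integrated HIV-1 vpr copy, seeded at OD 0.01 in PMG+AL medium with 23 nL pinned compound. Grown 24 h at 30 degrees; viability read by BacTiter-Glo luminescence after 5 min.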
SARS PLpro yeast: SARS-CoV PLP inhibition in yeast | S. cerevisiae expressing SARS-CoV PLpro, growth rescue; control for the full effect not named in the record | Potency, µM (highest dose often 32.9 µM), inactives show at the top dose activity, positive = growth rescue | actives 0.19% (n = 330,000) | AID 485353; active means well fitted rising curve with a large enough effect; inconclusive means small, poorly fitted or top-dose-only effect; inactive means no such curve, though single readings can be large or run the other way; note: 0% is about no effect; nearly all actives have a fitted effect of over 55% in size; growth read by luminescence after 48 h
Marburg entry inh: Marburg virus entry inhibition | actives 1.8% (n = 300,000) | Marburg virus pseudotyped entry inhibition, cell reporter; control for the full effect not named in the record; about a third of the inactives were read at about 46 µM | Potency, µM (titrated, usually from 37.8 µM), for inactives: top-dose activity change, negative = inhibition, usual class: inhibitors; active = well fitted inhibition curve with a large enough effect; inconclusive = small, poorly fitted or top-dose-only effect, or effect the other way; inactive = flat fitted curve, though single readings scatter; tested in HEK293 cells; about a fifth of its hits are not listed in these tables; note: % is set by controls: 0 for no effect and ±100 for the full control effect; luciferase read-out
Cruzain noTriton: blocks cruzain activity in detergent-free assay. P25779. purified cruzain, Z-FR-AMC fluorescence, no detergent. Potency, µM, for the others: max response, negative = inhibition, actives largely listed as inhibitors. actives 2.3% (n = 200,000). AID 1476;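 note: plate controls were enzyme without inhibitor for no effect and buffer without enzyme for full effect; nearly all actives have a fitted effect of over 40% in size; top concentration of the series not given in the record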
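Detergent-free condition (0.00005% Triton X-100) in acetate buffer pH 5.5 with DTT. 1.5 nM enzyme and compound were pre-mixed 15 min, then 2 uM Z-FR-AMC substrate added; reaction progress from fluorescence change between first and third reads (60 s).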
NS1 function inh: inhibitors of influenza NS1 protein function | actives 0.4% (n = 270,000) | S. cerevisiae slowed by influenza A NS1, growth recovery by OD600 | AID 2326 | Potency, µM (doses to about 46.1 µM), without a hit: at the highest dose activity, positive = more growth; active means well fitted rising curve with a large enough effect; inconclusive means small, poorly fitted or top-dose-only effect; inactive means no such curve, though single readings can be large or run the other way; note: nearly all actives have a fitted effect of over 50% in size
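Compounds were scored for reversing the slow growth caused by influenza A NS1 in S. cerevisiae, measured by optical density at 600 nm. Assay medium contained 2% galactose at pH 6.0; NS1-free yeast of the same strain were the positive control.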
2A StopGo: FMDV 2A StopGo reporter, luciferase signal; human cells with a luciferase reporter of 2A StopGo recoding; control for the full effect not named in the record; Potency, µM (highest dose often 57.9 µM), inactives show at the top dose signal change, negative = less light; actives 1.2% (n = 410,000); AID 1159524; active = well fitted falling curve with a large enough effect; inconclusive = small, poorly fitted or top-dose-only effect; inactive = no such curve, though single readings can be large or run the other way; tested in HEK293T cells; note: % is set by controls: 0 for no effect and ±100 for the full control effect; nearly all actives have a fitted effect of over 45% in size; luciferase light after 4 h
Lassa entry inh: blocks Lassa virus binding to or entry into cells. actives 1.2% (n = 300,000). Lassa virus pseudotype entry inhibition, cell reporter; control for the full effect not named in the record. Potency, µM (top dose mostly 37.9 µM), for the others: at the top dose activity change, negative = inhibition, actives largely listed as inhibitors; active means well fitted inhibition curve with a large enough effect; inconclusive means small, poorly fitted or top-dose-only effect, or effect the other way; inactive means flat fitted curve, though single readings scatter; tested in HEK293 cells; note: % is set by controls: 0 for no effect and ±100 for the full control effect; nearly all actives have a fitted effect of over 50% in size; luciferase read-out
* hit, by the source's call; ? = inconclusive; . = not tested or not shown; & = joins results of further samples; [ ] = another dose, or the depositor's remark. Unless noted, calls come from the whole dose curve; as a rule, active = well fitted curve in the direction sought with a large enough effect; inconclusive = small, poorly fitted or top-dose-only effect, or another doubt; inactive = no such curve, though single readings can be large; an effect the other way counts as inactive or inconclusive. Potency is the fitted concentration of half-maximal effect. Compounds were not picked by outcome. Share with any hit: about 4.7%.

SMILES	Cruzain Triton	RE007 growth inh	SARS PLpro yeast	Marburg entry inh	Cruzain noTriton	NS1 function inh	2A StopGo	Lassa entry inh
Cc1ccc(-n2nnnc2SCC(=O)c2cc(C)n(CC3CCCO3)c2C)cc1 (centres undefined)	-0.6%	-6%	-2%	4%	12%	-5%	.	?
CC(C)(C)OC(=O)NC1CCN(S(=O)(=O)c2ccc3c(c2)OCCO3)CC1	.	8%	0%	.	.	-1%	?	.
COc1ccc([N+](=O)[O-])cc1NCc1ccccc1C	1.9%	-24%	1%	-9%	-12%	-12%	.	?
CCN(CCCNC(=O)Cn1ncc2c([nH]c3ccccc32)c1=O)Cc1ccccc1	.	19%	2%	.	.	8%	-19%	.
COc1ccc(NC(=O)C(C)n2nc(-c3ccc(C)c(C)c3)ccc2=O)cc1OC (centres undefined)	-10%	.	.	-1%[46.1 µM]	?	.	0%	1%[46.1 µM]
CCCS(=O)(=O)Nc1cccc(-c2nc3cccnc3s2)c1	.	6%	-1%	?	.	-3%	-25%	-23%[46.1 µM]
O=C(CSc1ncc2c(n1)-c1ccccc1N(Cc1ccc(Cl)cc1)S2(=O)=O)c1ccc(Cl)cc1	3.8%	.	.	.	20µM*	.	-4%	?
COc1ccc(/C=C/C(=O)N(C)c2ccccc2C(=O)O)cc1	.	8%	-3%	-2%[46.1 µM]	.	4%	4%	-15%
CS(=O)(=O)N(CC(=O)NCc1ccc(Cl)cc1)C1CCCCC1	-2.3%	1%	1%	4%	20%	1%	-18%	10%
Cc1ccc2nc(SCC(=O)NCc3ccco3)[nH]c2c1	-0.8%	17%	-1%	-4%	-5%	0%	10%	15%
CSc1nsc(SCC(=O)Nc2ccc(NC(C)=O)cc2)n1	.	19%	3%	4%[46.1 µM]	.	-1%	1%	21%
COc1cc(C(=O)OCC(=O)N(C)c2ccccc2)cc(OC)c1OC	.	2%	0%	3%[46.1 µM]	.	-3%	-9%	-7%
O=C(NN=C1CCCC1)c1cc(Br)ccc1O	.	-8%	-3%	.	.	-26%	0%	.
COc1ccc(S(=O)(=O)N(C)CC(=O)Nc2cccc(C(C)=O)c2)cc1Cl	5.2%	-6%	-2%	12%	11%	2%	-18%	-4%
O=C(Cn1ncc2c(Cl)cccc21)NCc1cccc(F)c1	-5.4%	.	.	-9%[46.1 µM]	12%	.	-6%	-10%[46.1 µM]
COc1ccc(NC(=O)CN(C)C(=O)c2ccc(C)s2)cc1	2.2%	2%	3%	?	7%	13%	4%	0%
O=C(NCCCc1ccccc1)C1CCC(=O)N(Cc2ccc(Cl)cc2)C1 (centres undefined)	.	-25%	1%	7%	.	-14%	39%[activator]	-13%
CC(=O)c1cccc(-n2c(=O)c3c4c(sc3n(Cc3cccc(C)c3)c2=O)CN(C(C)=O)CC4)c1	-0.8%	.	.	3%[46.1 µM]	?	.	0%	.
CN(C(=O)c1cnc(N2CCOCC2)c2ccccc12)c1ccccc1F	-2.3%	.	.	.	-3%	.	-24%	?
CC(C)(C)c1cc(-c2ccccc2)n[nH]1	.	-15%	2%	.	.	-2%	21%	.
Cc1ccc(NC(=O)Nc2ccccc2CC[N+](=O)[O-])cc1	.	4%	-8%	20%[46.1 µM]	.	.	14%	-2%
O=C(C1=C[C@H](C2CC2)C[C@H](OCc2ccc(CO)cc2)O1)N1CCN(Cc2ccc3c(c2)OCO3)CC1	.	-1%	1%	.	.	-6%	?	.
CC1Cc2ccccc2N1C(=O)c1cc2c(=O)n3ccccc3nc2n1C (centres undefined)	-4.3%	-13%	2%	?	3%	-25%	?	?
CCCCN(CCCC)NC(=O)c1ccccc1	.	5%	1%	5%[46.1 µM]	.	.	-6%	9%
Cc1ccc2nc3c(cc(C(=O)NCC4CCCO4)c(=N)n3C3CCCC3)c(=O)n2c1 (centres undefined)	.	-17%	0%	?	.	-4%	-15%	-8%[46.1 µM]

Following part:
SMILES	Cruzain Triton	RE007 growth inh	SARS PLpro yeast	Marburg entry inh	Cruzain noTriton	NS1 function inh	2A StopGo	Lassa entry inh
COc1cc(Nc2ccc(C(=O)O)cc2[N+](=O)[O-])cc(OC)c1	-7.2%	-5%	-10%	-27%	-5%	-18%	8%	1%
COc1cccc(C(=O)C(=O)c2cccc(OC)c2OC)c1OC	.	-2%	.	?	.	.	-3%	-13%[46.1 µM]
Cc1ccc(C)c(OCCSc2nnc(-c3cccnc3)n2N)c1	-2.1%	6%	5%	7%	-11%	10%	7%	-2%
CC(C)(C)c1ccc(C(=O)C2CCCN(C(=O)C3CCOCC3)C2)cc1 (centres undefined)	.	-1%	0%	?	.	6%	?	-23%
COc1ccc(NC(=O)[C@@H]2CCCN2S(=O)(=O)c2ccc(Cl)cc2)cc1	.	-4%	-5%	23%	.	.	-18%	2%
Cc1ccccc1Nc1scc(-c2ccc(Cl)cc2)[n+]1-c1ccccc1C	.	0%	-21%	?	.	.	-19%	?
Cc1ccc(-n2nnnc2SCC(=O)NC2CC2)cc1C	.	2%	0%	.	.	0%	-8%	.
COc1ccccc1OCc1nn[nH]n1	.	1%	2%	6%	.	8%	-14%	3%
O=C(Nc1cc2c(cc1Br)OCCCO2)c1ccccc1	-2.1%	-12%	-10%	?	-5%	3%	21%	1%
Nn1c(=O)[nH]c2ccccc2c1=O	.	-2%	5%	.	.	4%	-9%	.
Cc1cccc(C=CC(=O)c2ccccc2)c1	.	?	.	-13%	.	.	-8%	12%
COCCN1C=C2C(=O)C(C)(OC(=O)C3CCCC3)C(=O)C=C2C=C1c1ccsc1 (centres undefined)	.	-5%	-3%	6%&6%[14.2 µM]	.	3%	16%	?
CCCCOc1ccc(C2C(C(=O)c3ccc(C)o3)=C(O)C(=O)N2CC2CCCO2)cc1 (centres undefined)	-8.6%	-8%	?	-8%	?	?	-18%	5%
COc1ccc(C(C)=O)cc1COC(=O)c1cnc(C)cn1	2.7%	2%	6%	8%	0%	10%	-13%	-3%
C=C(C)CSc1nnc(CCNC(=O)OC(C)(C)C)o1	4.4%	4%	0%	3%	10%	-1%	8%	-9%
Cc1cc(C)n(C(CC(=O)O)C(=O)O)n1 (centres undefined)	6.7%	11%	5%	0%	-2%	-6%	-10%	14%
COc1ccccc1-n1c(O)c(C=NC2CC2)c(=O)[nH]c1=O	2.4%	-13%[3.69 µM]	8%	21%	-9%	11%	-6%	-3%
COC(=O)c1nn(-c2ccc(Oc3ccccc3)cc2)c(=O)cc1O	.	11%	-3%	8%[46.1 µM]	.	.	-11%	-15%[46.1 µM]
CCCC(=O)c1c(O)[nH]c(=O)[nH]c1=O	4.9%	-5%	4%	-2%&-2%	-1%	4%	12%	1%
Cc1ccc(NC(=O)CN(C)C(=O)c2cccc(S(=O)(=O)NCc3ccccc3)c2)cc1	.	20%	-2%	?	.	.	14%	-7%
O=C(c1cccc(C(F)(F)F)c1)N1C[C@H]2C[C@@H](C1)c1cccc(=O)n1C2	.	-1%	-4%	.	.	2%	-10%	.
C=CCc1ccc(OC)c(OC)c1	0.7%	9%	9%	.	2%	-5%	-7%	.
CCc1ccc(-c2nc(SCC(=O)c3c(N)n(C)c(=O)n(C)c3=O)n[nH]2)cc1	.	13%	0%	2%	.	.	0%	27%
Cc1cnc(NC(=O)CSc2c(Cl)cccc2Cl)s1	2.6%	8%	4%	?	-8%	7%	-24%	?
COc1cc(OC)cc(C(=O)Nc2ccccc2NC(C)=O)c1	-2.4%	3%	7%	-4%	15%	-7%	-9%	-2%

New compounds follow
SMILES	Cruzain Triton	RE007 growth inh	SARS PLpro yeast	Marburg entry inh	Cruzain noTriton	NS1 function inh	2A StopGo	Lassa entry inh
CC1(C)CC(=O)C2=C(C1)NC(=O)CC2c1cc2c(cc1Br)OCO2 (centres undefined)	4.2%	6%	14%	20%	4%	1%	0%	-11%
COc1ccccc1/C=C/c1nc2ccc(OC(C)=O)cc2c(=O)o1	.	3%	7%	5%	.	13%	27%	-1%
O=C(CSc1ccc2nnc(-c3cccnc3)n2n1)NCC1CCCO1 (centres undefined)	-5.6%	-2%	4%	.	-3%	0%	-8%	.
COc1ccccc1-c1nc2c(c(SCc3cc(C)ccc3C)n1)Cc1c(CO)cnc(C)c1O2	-14%	.	.	.	?	.	-29%	-25%[46.1 µM]
CC(=O)Nc1nonc1-c1nnc(SCC(=O)Nc2ccc(C)c(Cl)c2)n1C	-2.2%	.	.	3%[46.1 µM]	-6%	.	-17%	?
O=C(CSc1nnc(CNC(=O)c2ccccc2F)o1)NC1CCCCC1	.	12%	-2%	?	.	0%	-8%	-1%[46.1 µM]
COC(=O)c1ccc(COc2ccc(C3C4=C(CCCC4=O)Nc4onc(C)c43)cc2)cc1 (centres undefined)	-5.8%	2%	-5%	-9%&-9%	-1%	-8%	-3%	-12%
CCCCNC(=S)N(C)/N=C/c1ccccc1C(=O)O	-1.4%	-4%	-4%	0%	-4%	2%	-16%	1%
COc1ccc(OCc2nnc(SCc3ccc(C(=O)O)cc3)o2)cc1	.	-13%	1%	-13%[14.2 µM]	.	-1%	16%	7%
COc1cc(OC)cc(C(=O)Nc2cc(-c3nc4ccccc4[nH]3)ccc2C)c1	-3.4%	.	.	-23%[46.1 µM]	?	.	-5%	?

Filtered by structure: those above containing two or more sulfur atoms
SMILES	Cruzain Triton	RE007 growth inh	SARS PLpro yeast	Marburg entry inh	Cruzain noTriton	NS1 function inh	2A StopGo	Lassa entry inh
CCCS(=O)(=O)Nc1cccc(-c2nc3cccnc3s2)c1	.	6%	-1%	?	.	-3%	-25%	-23%[46.1 µM]
O=C(CSc1ncc2c(n1)-c1ccccc1N(Cc1ccc(Cl)cc1)S2(=O)=O)c1ccc(Cl)cc1	3.8%	.	.	.	20µM*	.	-4%	?
CSc1nsc(SCC(=O)Nc2ccc(NC(C)=O)cc2)n1	.	19%	3%	4%[46.1 µM]	.	-1%	1%	21%
Cc1cnc(NC(=O)CSc2c(Cl)cccc2Cl)s1	2.6%	8%	4%	?	-8%	7%	-24%	?
